Screening results (PubChem BioAssay)
Sfp PPTase inh – Sfp phosphopantetheinyl transferase inhibition | Biochemical Sfp PPTase activity, qHTS | Q9F4F7 | Potency, µM, for inactives: max response, negative = inhibition, most hits filed as inhibitors | actives 3.5% (n = 310,000); active means well fitted inhibition curve with a large enough effect; inconclusive means small, poorly fitted or top-dose-only effect, or another doubt; inactive means no such curve, though single readings can be large or run the other way;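 further: the enzyme is Sfp with the accession as filed and its product quenches rhodamine fluorescence; potency means the concentration at half of the fitted maximal effect; 0% = enzyme reaction without inhibitor and -100% = no enzyme wells; top concentration of the series not given in the record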
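Sfp 15 nM + cpd, 15 min RT; start w/ rhodamine-CoA 5 uM, BHQ-2-YbbR 12.5 uM (final); 50 mM Hepes pH 7.6, 10 mM MgCl2, 0.01% NP-40, 0.01% BSA; read 525/598 nm at 0 and 30 min.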
TRPV1 potentiator – human TRPV1 potentiation. potentiation, % at 8.33 µM. actives 0.02% (n = 320,000). Q8NER1. AID 540277. TRPV1-expressing cells, Fluo-8 calcium influx, capsaicin EC20 potentiation; host cell line not named in the record; control for the full effect not named in the record; active means potentiation above 80%; inconclusive means 30% to 80%; inactive means below 30%; further: 0% is about no effect
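Fluo-8 calcium influx in TRPV1-expressing cells, kinetic read (ex 480/em 520 nm). Compound added and read 3 min for agonist activity, followed by capsaicin at EC20 final and 2 min further read for enhancement.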
ClpP mod – qHTS Assay for Activators of ClpP; ATP-dependent Clp protease proteolytic subunit (Bacillus subtilis (strain 168)), P80244; purified B. subtilis ClpP, FRET peptide cleavage, 20 min; Potency, µM (doses to about 57.5 µM), without a hit: at the top dose activity change, negative = active; actives 1.9% (n = 340,000); active = well fitted falling curve with a large enough effect; inconclusive = small, poorly fitted or top-dose-only effect; inactive = no such curve, though single readings can be large or run the other way; further: potency means the concentration at half of the fitted maximal effect; the source files actives as falling curves though it sought activators and does not explain the sign; nearly all actives have a fitted effect of over 65% in size; many hits overshoot -100%
Target sequence (P80244 whole entry, looked up): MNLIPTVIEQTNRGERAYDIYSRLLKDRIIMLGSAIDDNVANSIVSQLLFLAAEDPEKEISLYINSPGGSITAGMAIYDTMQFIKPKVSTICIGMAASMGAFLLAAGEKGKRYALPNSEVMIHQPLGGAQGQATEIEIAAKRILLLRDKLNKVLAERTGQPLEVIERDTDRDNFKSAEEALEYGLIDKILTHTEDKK
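Purified B. subtilis ClpP, 10 microg/mL final in Tris/HCl pH8 with KCl, BSA, glycerol and Tween-20, cleaved an Abz/nitrotyrosine-quenched decapeptide. Fluorescence (ex 320, em 430) was read at 0 and 20 min at room temperature. Delta was normalized to 5.8 microM ADEP and DMSO/no-enzyme controls.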
Menin MLL FP FL – inhibitors of human menin-MLL interaction, wild-type MLL peptide; Fluorescence polarization, fluorescein-MLL peptide displacement from menin; FP activity change, % at 61.4 µM; 290,000 tested, under 10 active; AID 1766; inconclusive = falling polarisation curve, or a change in total fluorescence; inactive = total fluorescence flat and polarisation flat or rising; no compound was filed as active; the % refers to the polarisation; negative = inhibition;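 further: % of control where 0% means no effect; inhibitors lower the polarisation; unlabelled MLL peptide was the positive control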
gsp antag – antagonizes gsp, the McCune-Albright syndrome mutation. gsp-mutant cells, cAMP HTRF, 30 min; control for the full effect not named in the record. Potency, µM (highest dose often 76.9 µM), for inactives: at the highest dose activity change, negative = inhibition, actives largely listed as inhibitors. actives 0.4% (n = 340,000). AID 624288; active = falling curve of any shape with a large fitted effect; inconclusive = falling curve, mostly with a smaller effect; inactive = flat or rising curve; cell line not stated here;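 further: intracellular cAMP measured with PDE inhibitor Ro 20-1724 present during compound exposure; potency means the concentration at half of the fitted maximal effect; on the % scale 0 is the no-effect control and ±100 the full control effect; nearly all actives have a fitted effect of over 65% in size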
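Cells, 2000/well, grown 16–24 h in DMEM 10% FBS with 0.5 mg/ml G418, then compounds plus […] (300 uM addition stock), 30 min at 37C. cAMP read by HTRF (cAMP-d2 and anti-cAMP antibody-K in lysis buffer) after 30 min RT.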
D2 PAM – potentiates the human D2 dopamine receptor allosterically; P14416; DiscoveRx D2 beta-arrestin cells, luminescence, 90 min; 100% = 57 uM dopamine signal; potentiation, % (no concentration beside the values); actives 0.23% (n = 360,000); active = potentiation of 50% or more; inconclusive = 30% to 50%; inactive = 30% or less;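 further: compound concentration not given in the record; tested on top of an EC20 dose of dopamine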
Target sequence (P14416 whole entry, looked up): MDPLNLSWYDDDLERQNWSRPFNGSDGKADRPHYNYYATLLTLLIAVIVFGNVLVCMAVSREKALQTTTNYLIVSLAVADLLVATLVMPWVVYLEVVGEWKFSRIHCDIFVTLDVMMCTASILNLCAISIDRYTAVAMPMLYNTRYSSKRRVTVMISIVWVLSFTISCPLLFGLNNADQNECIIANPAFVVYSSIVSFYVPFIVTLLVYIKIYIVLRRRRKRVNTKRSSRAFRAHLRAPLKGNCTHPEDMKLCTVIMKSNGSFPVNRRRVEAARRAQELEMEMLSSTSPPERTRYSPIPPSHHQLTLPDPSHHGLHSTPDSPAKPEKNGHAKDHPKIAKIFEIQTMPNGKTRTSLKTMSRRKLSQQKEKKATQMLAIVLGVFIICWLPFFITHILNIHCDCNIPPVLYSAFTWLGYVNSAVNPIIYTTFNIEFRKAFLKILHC
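PathHunter beta-arrestin assay in DiscoveRx D2 cells. Compounds were added with an EC20 of dopamine (50 nM final) for 90 min at 37 deg C. Luminescence was read 1 h after detection reagent, with 57 uM dopamine as the EC100 control.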
gsp agonist – activates gsp, the McCune-Albright syndrome mutation. gsp mutant cells, cAMP HTRF, 30 min; control for the full effect not named in the record. Potency, µM (titrated, usually from 76.9 µM), inactives show at the top dose activation (cAMP increase), actives largely listed as activators. actives 0.13% (n = 340,000); active = well fitted activation curve with a large enough effect; inconclusive = small, poorly fitted or top-dose-only effect, or another doubt; inactive = no such curve, though single readings can be large or run the other way; cell line not stated here;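 further: phosphodiesterase inhibitor Ro 20-1724 added with compounds to block cAMP breakdown; potency means the concentration at half of the fitted maximal effect; nearly all actives have a fitted effect of over 60% in size; about a fifth of the inactives were tested at one dose only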
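Cells in DMEM/10% FBS with G418 were pretreated with compounds in DMSO plus […] (300 uM stock) for 30 min at 37C. cAMP was measured by HTRF (cAMP-d2 plus anti-cAMP antibody-K) after 30 min at room temperature.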
* hit, by the source's call; ? = inconclusive; · = no result given; [ ] = another dose, or the depositor's remark.

Each structure is followed by: D2 PAM | TRPV1 potentiator | Sfp PPTase inh | gsp agonist | Menin MLL FP FL | ClpP mod | gsp antag
O=C(COC(=O)C1=NN(c2ccccc2)C(=O)CC1)Nc1nc(-c2ccc(F)cc2)cs1
    -23 | · | · | -23%[15.4 µM] | · | 0.5% | -16%
Cc1cccc(NC(=O)CNC(=O)c2ccc3nc[nH]c3c2)c1C
    25 | 8 | · | -24% | · | -2.9% | 5%
Cc1ccc(-c2[nH]c3cc(C(=O)NCCCn4ccnc4)ccc3c(=O)c2O)cc1
    -19 | 13 | 8% | 23% | 1.4 | -15% | 12%
CC1CN=C(Nc2cccc(S(=O)(=O)N(C)C)c2)S1 (stereo not given)
    -4 | -3 | 14% | ? | -2.4 | 0.2% | 6%
CC(C)c1ccc2[nH]c(O)c(N=NC(=S)NCCc3ccccc3)c2c1
    -5 | 11 | 32%[activator] | -20% | 1.5 | -0.6% | 10%
O=C(CCC(=O)Nc1ccc(Cl)cc1Cl)NNC(=O)Nc1ccccc1
    -2 | 7 | 4% | -28% | 0.6 | · | -2%
O=C1NCCc2cc3c(cc21)OCO3
    -4 | 26 | 15% | 10% | -0.7 | ? | -2%
CC1=Nc2ccccc2N=C(NC(=O)CN2CCN(c3ccccc3)CC2)C1c1ccccc1 (stereo not given)
    -5 | -2 | 3% | ? | -2.8 | · | -26%
Cc1ccc(NC(=O)CN2C(=O)c3ccccc3S2(=O)=O)cc1C
    -5 | 7 | 16% | 23%[15.4 µM] | -7.7 | · | -3%
CCC1=NN=C(c2ccc(F)cc2)C(c2c[nH]c3ccccc23)N1O (stereo not given)
    -9 | -7 | 19% | -26% | 1.1 | 1.5% | -5%
COc1ccccc1OCc1cc(C(=O)N(C)CCC2CCCCO2)no1 (stereo not given)
    -6 | 27 | 10% | -37%[inhibitor] | · | 1.4% | -10%
CCOC(=O)c1cccc(NS(=O)(=O)c2cnc[nH]2)c1
    -18 | 25 | -9% | 4% | 0.6 | 3.1% | 1%
CCOC(=O)N1CCN(S(=O)(=O)c2ccc(C)c(C(=O)NC3CCCCC3)c2)CC1
    20 | 5 | 9% | ? | · | -0.6% | 11%
O=C(O)c1cccc(Oc2ccccc2[N+](=O)[O-])c1
    -13 | -7 | 9% | 3% | 0.5 | -0.8% | -5%
Cc1cc(C)c2c(c1)CC(C)(C)CC2=O
    -6 | · | · | -6% | · | -2.5% | -14%
CCc1nc(SCC(=O)c2c[nH]c3ccccc23)n[nH]1
    -3 | -21 | 9% | 6%[15.4 µM] | 8.2 | · | -2%
COc1ccc(Nc2ccnc3ccccc23)cc1
    -15 | 0 | -12% | -65%[inhibitor] | -1.0 | -1.0% | 0%
CN1CCc2c(sc(NC(=O)C3CCCN3S(=O)(=O)c3ccc(Cl)s3)c2C(N)=O)C1 (stereo not given)
    0 | -11 | · | 8%[15.4 µM] | · | · | -3%
O=S(=O)(c1ccccc1)c1nc(-c2ccco2)oc1N1CCCCCC1
    -15 | -29 | 63µM* | -63%[inhibitor] | 23 | 1.6% | ?
CCOC(=O)NC(=O)CSc1nnc(SCCC(=O)O)s1
    -15 | -10 | 9% | 5% | 2.8 | 1.0% | 11%
CCOC(=O)c1c(NC(=O)CSc2nnc(-c3c[nH]c4ccccc34)n2CCOC)sc2c1CCCC2
    -11 | 22 | -14% | -54%[inhibitor] | -0.3 | -6.2% | ?
Cc1cc(C)c(S(=O)(=O)N2CCN(C(=O)CN3C(=O)NC4(CCCC4)C3=O)CC2)c(C)c1
    0 | -5 | 1% | 3% | · | 35µM* | 8%
Cc1ccc(NC(=O)COC(=O)Cn2cnc3c2c(=O)n(C)c(=O)n3C)c(Cl)c1
    -19 | 1 | 17% | 15%[15.4 µM] | 4.0 | · | ·
CCOc1ccc(-c2cc(N)n(S(=O)(=O)c3cccc4nsnc34)n2)cc1
    -11 | ? | 3% | 1% | 2.3 | -0.3% | ?
O=C(NNC(=O)c1cccc2ccccc12)c1cccc(Cl)c1
    -14 | · | · | 5%[15.4 µM] | · | 0.9% | 3%
COc1ccc2c(C)cc(=O)sc2c1
    -5 | · | · | ? | · | -7.8% | ·
CC12CCC(C(=O)N(c3nccs3)C1=O)C2(C)C (stereo not given)
    3 | · | · | -65%[inhibitor] | · | · | 6%
CN(C(=O)COC(=O)C1c2ccccc2Oc2ccccc21)C1CCS(=O)(=O)C1 (stereo not given)
    -11 | 10 | 12% | ? | -6.5 | -3.4% | 9%
Nc1nc(Cl)cc(NCCc2ccc(O)cc2)n1
    -3 | 1 | 21% | ? | 1.2 | · | 5%
Cc1nc(C)c(CC(=O)N2CCc3c([nH]c4ccccc34)C2c2ccccn2)s1 (stereo not given)
    -3 | -5 | -9% | 21%[15.4 µM] | -2.6 | · | -4%
O=C(NNC(=O)c1ccc(Br)s1)c1cccc(S(=O)(=O)N2CCCC2)c1
    -7 | -9 | · | -32%[inhibitor] | · | 1.8% | -11%
CC(=O)NC(=S)Nc1ccc2oc(=O)ccc2c1
    1 | 26 | -4% | -5%[15.4 µM] | 1.6 | · | 5%
CC(C)CC(NC(=O)c1ccc(Cl)cc1)C(=O)OCc1cc([N+](=O)[O-])cc2c1OCOC2 (stereo not given)
    -32 | -2 | 14% | 11% | 2.2 | 22µM* | -17%
Cc1ccc(S(=O)(=O)N2CCCN(C(=O)c3ccc(-n4cccn4)cc3)CC2)cc1
    -7 | 8 | · | 6% | · | -3.5% | 0%
c1ccc(Cc2noc(CN3CCC(CN4CCOCC4)CC3)n2)cc1
    -6 | -1 | 11% | -12%[15.4 µM] | 0.2 | 2.8% | -5%
CC(=O)N1CCN(C(=O)c2ccc(C(=O)c3ccccc3)cc2)CC1
    -11 | -1 | 5% | -27% | 0.8 | 1.2% | 5%
Nc1cc(S(=O)(=O)Nc2ccc(Cl)cc2)ccc1N1CCOCC1
    -2 | -5 | 20µM* | 6%[15.4 µM] | -4.3 | · | -9%
O=[N+]([O-])c1ccc2c(c1Nc1ccccc1Cl)=NC1(CCCCC1)N=2
    3 | -14 | -6% | -98%[inhibitor] | -8.1 | -0.2% | 6%
Cc1ccc(NC(=O)C2CCC(=O)N2)cc1C (stereo not given)
    -6 | -3 | 6% | -13% | -1.6 | -0.7% | 19%
O=[N+]([O-])c1ccc(CN2CCN(c3ccccc3Cl)CC2)o1
    -5 | -24 | ? | 10% | -0.2 | 2.2% | 3%
CC(C)N(N=Nc1ccc([N+](=O)[O-])cc1)C(C)C
    -3 | 3 | -11% | -20% | 1.8 | 2.0% | -16%
CC(C)C(=O)Nc1ccc(NC(=O)c2ccccn2)cn1
    5 | -10 | -24% | 0% | 1.7 | -1.9% | 11%
COc1cccc(OC)c1-c1nn(-c2ncc(C(F)(F)F)cc2Cl)c(=O)o1
    -12 | 0 | 16% | 4% | -0.9 | · | 11%
C=CCc1ccc(OCCn2cccc2C=O)c(OC)c1
    -7 | 8 | 8% | -25% | -0.7 | -1.2% | 7%
Cc1c(N=Cc2ccc[nH]2)c(=O)n(-c2ccccc2)n1C
    2 | 22 | -14% | 15% | 2.8 | -0.4% | 13%
COc1ccc(CNC(=O)N[C@@H](Cc2c[nH]c3ccccc23)C(=O)O)cc1
    -13 | 2 | 12% | ? | 3.6 | -1.3% | 7%
CCCc1c(C(=O)N/N=C/C=C/c2ccccc2)nnn1-c1nonc1N
    -8 | · | · | -61%[inhibitor] | · | -7.1% | ·
CC(C)N(C(=O)NC(=O)Nc1ccccn1)S(C)(=O)=O
    -3 | 2 | 12% | 23% | 6.2 | · | 16%
COC(=O)[C@@]12CCCCN1[C@H](c1ccc(-c3ccccc3)c(OC)c1)[C@H]1C(=O)N(C)C(=O)[C@H]12
    -9 | · | · | ? | · | 0.9% | 5%
CCCCOc1ccc(CON(C(C)=O)C(C)=O)cc1Cl
    4 | 17 | 8% | 4% | 0.7 | -0.4% | -6%

Further results:
Each structure is followed by: D2 PAM | TRPV1 potentiator | Sfp PPTase inh | gsp agonist | Menin MLL FP FL | ClpP mod | gsp antag
CCOC(=O)N1CCN(Cc2nc(-c3ccc(OC)cc3)no2)CC1
    0 | · | · | 5% | · | 0.3% | -21%
CCc1cc2cc(C)ccc2nc1SCC(=O)N1CC(=O)Nc2ccccc21
    -5 | 1 | -11% | -4%[15.4 µM] | 1.4 | · | -10%
OCC1OC(n2cnc3c(=S)nc[nH]c32)CC1O (stereo not given)
    -10 | · | · | -20% | · | 1.0% | -10%
Cc1cc(C)c(OCC(=O)Nc2nc(-c3ccccn3)cs2)c(C)c1
    -21 | 0 | -3% | -6%[15.4 µM] | 0.1 | · | ·
CCOc1cc(S(=O)(=O)NCc2ccccc2)c(OCC)cc1-n1cnnn1
    4 | · | · | -37%[inhibitor] | · | 32µM* | -1%
COc1ccccc1Cn1c(=S)[nH]c2ccccc2c1=O
    1 | -39 | 14% | ? | 3.0 | · | -6%
CCC(=O)N1CCc2cc(S(=O)(=O)NCCC(=O)NC3CCCc4ccccc43)ccc21 (stereo not given)
    -15 | 8 | 2% | -8% | 4.9 | -4.6% | -21%
Cc1ccc(-n2ncc(C#N)c2/N=C/N2CCN(C)CC2)cc1
    -45 | 0 | 12% | 9% | 3.1 | -3.3% | 3%
Cc1ccccc1C(=O)NC(=S)Nc1ccccc1N1CCCC1
    -4 | -1 | 8% | 23% | 7.3 | -0.1% | -17%
COc1ccc(CCN(C(=O)Cn2nnc3ccccc32)C(C(=O)NCC2CCCO2)c2ccncc2)cc1OC (stereo not given)
    -2 | 5 | 20% | 0%[15.4 µM] | -10 | 0.7% | 10%
